Screening data deposited in PubChem by National Center for Advancing Translational Sciences (NCATS).
PK Bst: modulators of Bacillus stearothermophilus pyruvate kinase. Potency, µM. AID 361. hit rate 1.2% among 51,000. partly purified Bacillus stearothermophilus pyruvate kinase, luminescence ATP production; ribose 5-phosphate activator present at AC10; in the data active means potency below about 11 µM; inconclusive means mostly about 12 µM to 25 µM; inactive means weaker than that;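 the screen sought inhibitors and activators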;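 note: potency is the fitted concentration of half-maximal effect; scaled between full activation by ribose 5 phosphate and full inhibition by luteolin; about four in five hits inhibit and the cells do not say which; series up to 57 µM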
TsaE inh: inhibitors of E. coli YjeE (TsaE). Potency, µM. purified YjeE, fluorescence polarisation of a bound ADP probe. hit rate 0.05% among 71,000; active = well fitted falling curve; inconclusive = weaker or top-dose-only fall, or a rising curve; inactive = flat or poorly fitted curve;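 note: top concentration of the series not given in the record; excess ADP was the control for the full effect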
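Fluorescence polarization of a BODIPY Texas Red–ADP probe (2 uM) bound to purified YjeE (10 uM) was read after 15 min room-temperature incubation with compounds. Loss of polarization marks inhibitors; ADP serves as titrated control.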
Active calls of the source: *. An excerpt; rates above refer to the full screens.

Results for Cc1cc2c(c(=O)n1Cc1ccccn1)C(C(C)C)C(C#N)=C(N)O2 (stereo not drawn) ?
PK Bst: >57; TsaE inh: inactive

How did Cn1c(SCC(=O)N2CCc3ccccc3C2)nnc1-c1cccs1 do in these assays?
PK Bst: >57; TsaE inh: inactive

Results for CN(C)c1nc(Oc2ccc(N)cc2)nc(N(C)C)n1 ?
PK Bst: >57; TsaE inh: inactive

What do the screens show for `COc1ccc(NC2=NCC(=O)N2c2ccccc2F)c(OC)c1`?
PK Bst: >57; TsaE inh: inactive

How did CC(C)CNc1oc(-c2ccc(F)cc2)nc1C#N do in these assays?
TsaE inh: inactive

How did CCn1nc(C(=O)OCC(=O)c2ccc3c(c2)OCCO3)c2ccccc2c1=O do in these assays?
PK Bst: inconclusive; TsaE inh: inactive

How did CC(C)c1ccc2c([Si](C)(C)C)c3c(nc2c1)-c1cccc(=O)n1C3 do in these assays?
TsaE inh: inactive

How did Cc1ccc(CCC(=O)Nc2ccc(S(N)(=O)=O)cc2)o1 do in these assays?
PK Bst: >57; TsaE inh: inactive

What do the screens show for `COc1ccc(-c2cc(C(F)(F)F)nc(N3CCN(Cc4ccccc4)CC3)n2)cc1OC`?
PK Bst: >57; TsaE inh: inactive

Results for CCn1c2ccccc2c2cc(NC(=O)CSc3nnc(C4CC4)n3Cc3ccco3)ccc21 ?
PK Bst: >57; TsaE inh: inactive

Results for COc1ccc(-c2nnc3ccc(SCC(=O)N4CCOCC4)nn23)cc1 ?
TsaE inh: inactive

How did Nc1nonc1C(=O)NC(c1ccccc1)c1ccccc1 do in these assays?
PK Bst: >57; TsaE inh: inactive

How did COc1cc2cc(CN(CCCO)S(=O)(=O)c3ccccc3)c(=O)[nH]c2cc1OC do in these assays?
PK Bst: >57; TsaE inh: inactive

Results for COCCn1c(=O)c(-c2cccs2)nc2cnc(OC)nc21 ?
TsaE inh: inactive

What do the screens show for `O=C(Nc1ccncc1)C1COc2ccccc2O1` (stereo not drawn)?
PK Bst: >57; TsaE inh: inactive

Results for CC(C)c1nc(SCC(=O)N2CCCC2)c2ccccc2n1 ?
TsaE inh: inactive

How did O=S1(=O)N=C(N2CCN(Cc3ccccc3)CC2)c2ccccc21 do in these assays?
PK Bst: >57; TsaE inh: inactive

How did COc1ccc(Nc2nc(N)nc(CN3CCC(Cc4ccccc4)CC3)n2)cc1 do in these assays?
TsaE inh: inactive

Results for CC1=C[N+](=O)c2ccccc2[N+]1=O ?
TsaE inh: inactive

What do the screens show for `CC1CN(S(=O)(=O)c2cccc(C(=O)NCc3ccc4c(c3)OCO4)c2)CC(C)O1` (stereo not drawn)?
PK Bst: >57; TsaE inh: inactive

What do the screens show for `CC(NC(=O)Nc1ccccc1)c1ccccc1` (stereo not drawn)?
TsaE inh: inactive

Results for Cc1ccc(S(=O)(=O)CC(=O)N2CCCCCC2)cc1 ?
PK Bst: >57; TsaE inh: inactive

What do the screens show for `Cn1c(C[C@@H](O)c2nc3ccccc3n2C)nc2ccccc21`?
TsaE inh: inactive

Results for O=C(Nc1ccncc1)C1c2ccccc2Oc2ccccc21 ?
PK Bst: >57; TsaE inh: inactive

How did CSc1cccc(NS(=O)(=O)c2ccc(F)cc2)c1 do in these assays?
PK Bst: >57; TsaE inh: inactive

What do the screens show for `CCC(=O)Nc1cc(C)c(NC(=O)c2ccccc2OC)cn1`?
PK Bst: >57; TsaE inh: inactive

What do the screens show for `C=CCNC(=O)N[C@@H](CCSC)C(=O)OC`?
PK Bst: >57; TsaE inh: inactive

Results for O=P(c1ccccc1)(c1ccccc1)C(O)c1ccncc1 (stereo not drawn) ?
PK Bst: >57; TsaE inh: inactive

How did O=C(Nc1ccccc1C(F)(F)F)N1CCCCCC1 do in these assays?
PK Bst: >57; TsaE inh: inactive

What do the screens show for `Cc1cc(C)c(NC(=O)CSc2nc3c(c(=O)n2C)SC(C)C3)c(C)c1` (stereo not drawn)?
TsaE inh: inactive

Results for CSc1nc2ccccc2n1C(=O)Oc1ccccc1 ?
PK Bst: >57; TsaE inh: inactive

How did Cc1cc(C(=O)NCCCn2ccnc2)cs1 do in these assays?
PK Bst: >57; TsaE inh: inactive

How did Cc1ccccc1N(CC(=O)NCCc1ccccc1)C(=O)c1ccc(N2CCCC2)nc1 do in these assays?
PK Bst: >57; TsaE inh: inactive

How did O=c1c[n+]([O-])c2ccccc2n1OCc1c(F)cccc1F do in these assays?
PK Bst: >57; TsaE inh: inactive

What do the screens show for `O=C(O)CC(CC(=O)Nc1nncs1)c1ccccc1` (stereo not drawn)?
PK Bst: >57; TsaE inh: inactive

How did CC(C)C[C@@H](CC(=O)N[C@@H](CCC(=O)O)CC(=O)O)NC(=O)[C@@H]1CNCC[C@H]1NC(=O)C[C@@H](NC(=O)C[C@H](Cc1c[nH]c2ccccc12)NC(=O)[C@@H]1CNCC[C@H]1N)C(C)C do in these assays?
TsaE inh: inactive

How did Cc1ccc2c(c1)nnn2C1CCN(S(=O)(=O)c2ccc(C(=O)N3CC(C)CC(C)C3)cc2)CC1 (stereo not drawn) do in these assays?
PK Bst: >57; TsaE inh: inactive

Results for CCCn1c(CN2CCN(C(=O)OCC)CC2)nc2c1c(=O)n(C)c(=O)n2C ?
TsaE inh: inactive

What do the screens show for `CCc1nnc(NC(=O)CSc2nnc(-c3c[nH]c4ccccc34)n2C)s1`?
PK Bst: >57; TsaE inh: inactive

How did O=C(c1ccccc1F)N1CCN=C1SCc1cccnc1 do in these assays?
TsaE inh: inactive

Results for O=C(COc1ccccc1)N(Cc1ccco1)c1ccc(O)cc1 ?
PK Bst: >57; TsaE inh: inactive

Results for Cc1ccc(S(=O)(=O)NC(=O)NCc2ccc3c(c2)OCO3)cc1 ?
PK Bst: >26

How did COc1ccc(F)cc1S(=O)(=O)NC1CC(C)(C)NC(C)(C)C1 do in these assays?
PK Bst: >57; TsaE inh: inactive

What do the screens show for `CCC1Oc2ccccc2N(CC(=O)Nc2ccccc2OC)C1=O` (stereo not drawn)?
PK Bst: >57; TsaE inh: inactive

Results for O=C1CCCN1c1ccc(S(=O)(=O)Nc2ccc3c(c2)OCCO3)cc1 ?
PK Bst: >57; TsaE inh: inactive

Results for COc1ncc2nc(-c3cc(F)cc(F)c3)c(=O)n(C3CC3)c2n1 ?
TsaE inh: inactive

Results for CCCn1c(=O)c(C(=O)Nc2nnc(C)s2)c(O)c2ccccc21 ?
PK Bst: >57; TsaE inh: inactive

Results for O=C(NCC1(c2ccccc2)CCOCC1)c1ccc(Br)o1 ?
TsaE inh: inactive

What do the screens show for `O=C(COC(=O)c1ccco1)NCc1ccco1`?
PK Bst: >57; TsaE inh: inactive

What do the screens show for `Cc1c2c(nc3nc4ccccc4n13)CC(C)(C)CC2=O`?
PK Bst: >57; TsaE inh: inactive

Results for C1CCC(N=C(NC23CC4CC(CC(C4)C2)C3)N2CCOCC2)CC1 ?
TsaE inh: inactive

How did Cc1c(C(=O)Nc2ccncc2)sc2nc(-c3ccc(F)cc3)cn12 do in these assays?
TsaE inh: inactive

How did CCOc1ccc(NS(=O)(=O)N(C)C)cc1 do in these assays?
PK Bst: >57; TsaE inh: inactive

What do the screens show for `NC1=NC(S)C2N=CN=C2N1` (stereo not drawn)?
TsaE inh: inactive

What do the screens show for `COc1ccc(NC(=O)Cn2nnc(C(=O)NCc3cccc(OC)c3)c2N)cc1`?
PK Bst: >57; TsaE inh: inactive

Results for COCCNC(=O)CCc1nc(-c2ccccc2)no1 ?
PK Bst: >57; TsaE inh: inactive

How did O=C1CC2(CCCC2)CC(=O)N1CCNC[C@H]1COc2ccccc2O1 do in these assays?
TsaE inh: inactive

What do the screens show for `CC(Sc1nnc(COc2ccc3ccccc3c2)n1C)C(=O)O` (stereo not drawn)?
PK Bst: >57; TsaE inh: inactive

Results for Cc1cc(C(=O)CN2C(=O)C3CC=CCC3C2=O)c(C)n1-c1ccccc1 (stereo not drawn) ?
PK Bst: 6*; TsaE inh: inactive

How did Cc1occc1-c1nnc(SCC(=O)N2CCOCC2)o1 do in these assays?
PK Bst: >57; TsaE inh: inactive

Results for CN1CCN(c2ncc3nc(-c4ccc(Cl)cc4)c(=O)n(-c4ccccc4)c3n2)CC1 ?
TsaE inh: inactive

How did COc1cccc(C2CC(c3ccc(C(C)C)cc3)n3nc(N)nc3N2)c1 (stereo not drawn) do in these assays?
TsaE inh: inactive

Results for O=c1c(-c2ccc(O)cc2)coc2cc(O)cc(O)c12 ?
TsaE inh: inactive

Results for Oc1c(CN2CCCCC2)cc(Br)c2cccnc12 ?
PK Bst: >57; TsaE inh: inactive

Results for Cc1cc(SCC(=O)NC(=O)NCc2ccco2)nc2ccccc12 ?
PK Bst: inconclusive; TsaE inh: inactive

Results for CCOc1ccc(C2CC(=O)c3c([nH]c(C(=O)OC)c3C)C2)cc1OC (stereo not drawn) ?
PK Bst: >57; TsaE inh: inactive

What do the screens show for `Cc1cc(NC(=O)CSc2cn(CCNC(=O)c3ccc(Cl)cc3)c3ccccc23)no1`?
TsaE inh: inactive

Results for Cc1cc(C(F)F)n2ncc(C(=O)NC3CCCCCC3)c2n1 ?
PK Bst: >57; TsaE inh: inactive

Results for c1ccc2c(c1)[nH]c1c(N3CCN(C4CCCCC4)CC3)ncnc12 ?
PK Bst: >26

How did CC(O)(P(=O)(O)O)P(=O)(O)O do in these assays?
TsaE inh: inactive

What do the screens show for `C#CC1CN(Cc2ccccc2)CC(C#C)N1C` (stereo not drawn)?
PK Bst: >26

What do the screens show for `CC(C)C1C(C#N)=C(N)SC(N)=C1C#N`?
TsaE inh: inactive

How did Cc1ccc(-c2nnc(SCC(=O)N3c4ccccc4NC(=O)C3(C)C)n2N)cc1 do in these assays?
PK Bst: >57; TsaE inh: inactive

Results for CCCCNC(=O)c1nn(-c2ccccc2OC)c(=O)c2ccccc12 ?
PK Bst: >57; TsaE inh: inactive

How did NC(=O)c1oc2ccccc2c1NC(=O)CCc1ccccc1 do in these assays?
TsaE inh: inactive

What do the screens show for `O=C(Oc1ccc(N2C(=O)CCC2=O)cc1)c1ccco1`?
PK Bst: >57; TsaE inh: inactive

Results for CCN(CC)CCCNC(=O)CC1Sc2ccccc2NC1=O (stereo not drawn) ?
PK Bst: >57; TsaE inh: inactive

What do the screens show for `COc1ccc(Br)cc1CNCCSc1nnnn1C`?
PK Bst: >57; TsaE inh: inactive

What do the screens show for `N=c1c2c(n(Cc3ccccc3)c3c1CCC3)CCC2`?
PK Bst: >57; TsaE inh: inactive

Results for Cc1cc(NC(=O)CS(=O)(=O)c2cn(Cc3ccccc3Cl)c3ccccc23)no1 ?
PK Bst: >57; TsaE inh: inactive

How did C#CCN1C(=O)C(O)(CC(=O)c2cc(OC)ccc2OC)c2ccccc21 (stereo not drawn) do in these assays?
PK Bst: >57; TsaE inh: inactive

How did CCOC(=O)c1c(CN(C)C)oc2cc(CN(C)C)c(O)c(CSc3ccccc3)c12 do in these assays?
PK Bst: >57; TsaE inh: inactive

Results for CC(=O)NCCc1ccc(S(=O)(=O)NCc2ccc3c(c2)OCO3)cc1 ?
TsaE inh: inactive

How did Cc1noc(C)c1C(=O)NCCCN1CCCC1=O do in these assays?
PK Bst: >57; TsaE inh: inactive

What do the screens show for `CCN(Cc1cc2cc(OC)ccc2[nH]c1=O)C(=O)c1ccncc1`?
PK Bst: >57; TsaE inh: inactive

How did N#CCSc1nc(-c2ccccc2)cs1 do in these assays?
PK Bst: >57; TsaE inh: inactive

Results for Cc1ccc(S(=O)(=O)Oc2cc(S(=O)(=O)O)cc3cc(S(=O)(=O)O)cc(N)c23)cc1 ?
TsaE inh: inactive

What do the screens show for `CCOc1ccc(C2C(C(=O)NC)=C(C)Nc3nc4ccccc4n32)cc1OC` (stereo not drawn)?
TsaE inh: inactive

What do the screens show for `Cc1cccc2cc3ccc4ccccc4c3cc12`?
TsaE inh: inactive

Results for O=C(c1cccc(F)c1)N1CCCC(C(=O)N2CCCC2)C1 (stereo not drawn) ?
PK Bst: >57; TsaE inh: inactive

What do the screens show for `COc1ccc(C(=O)Nn2c(SCC(=O)NCc3ccco3)nc3ccccc3c2=O)cc1`?
PK Bst: >57; TsaE inh: inactive
